S aureus helic = S. aureus DNA helicase inhibition; purified S. aureus helicase, fluorescence unwinding assay; about half of the hits fall short of the stated cut; inhibition, %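 (tested at about 80 µM)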; 0.05% of 120,000 active; AID 485395;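 active = both duplicates at 50% or more, or one of them with a favoured structure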;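 note: 0% = mean of negative control wells and 100% = mean of positive control wells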
MgrA-DNA mod = S. aureus MgrA-DNA binding modulation; fluorescence polarization; 0.13% of 84,000 active; AID 602314; inhibition, %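 (about 10 µg/mL by stock and volumes)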;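 active = above 50% in either of two replicates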;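 note: 0% = protein plus DNA without compound and 100% = DNA alone without protein; higher means less MgrA bound to DNA so lower polarization; one replicate is shown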
Active calls of the source: *; . = not tested or not shown. An excerpt; count on the stated rates, not on these rows.

canonical_smiles	S aureus helic	MgrA-DNA mod
CCOC(=O)/C(C#N)=C/c1cn(-c2ccccc2)nc1-c1cccnc1	-2	.
O=C(NCCn1cc(SCC(=O)N2CCCCC2)c2ccccc21)c1ccccc1F	-10	0.6
N=C1C(c2nc3ccccc3[nH]2)=C(O)CN1c1ccccc1	-20	.
Cn1c(C(=O)N2CCN(c3ccccc3F)CC2)cc2c(=O)[nH]c3ccccc3c21	8	0.7
O=c1c2cc3c(=O)n(CC4CCCO4)c(=O)c3cc2c(=O)n1CC1CCCO1 (stereo not drawn)	12	.
C/C(=N/O)c1cc(C(C)(C)C)cc2c1CCC2(C)C	.	0.8
CCCCOc1ccc(C(=O)NCCOC)cc1	6	5.8
CCCNC(=O)CSc1nc2nc(C)c(Cc3cccc(C)c3)c(C)n2n1	13	-0.4
CCOc1ccc(S(N)(=O)=O)cc1-c1nc2c(C(C)(C)C)nn(C)c2c(=O)[nH]1	14	.
COC(=O)CC1SC(=O)NC1=Nc1ccc(O)cc1 (stereo not drawn)	0	-0.6

Complete entries, looked up by structure. Order of values: S aureus helic | MgrA-DNA mod
O=c1c2cc3c(=O)n(CC4CCCO4)c(=O)c3cc2c(=O)n1CC1CCCO1 (stereo not drawn) in the list: 12 | .
Cn1c(C(=O)N2CCN(c3ccccc3F)CC2)cc2c(=O)[nH]c3ccccc3c21 in the list: 8 | 0.7
COC(=O)CC1SC(=O)NC1=Nc1ccc(O)cc1 (stereo not drawn) in the list: 0 | -0.6
CCCNC(=O)CSc1nc2nc(C)c(Cc3cccc(C)c3)c(C)n2n1 in the list: 13 | -0.4
CCOC(=O)/C(C#N)=C/c1cn(-c2ccccc2)nc1-c1cccnc1 in the list: -2 | .

Going on with the list:
canonical_smiles	S aureus helic	MgrA-DNA mod
COc1ccc(C(=O)N=c2nc3ccccn3s2)cc1	-2	.
Cc1cc(C)nc(N2NC(c3ccccc3)C(C#N)=C2O)n1 (stereo not drawn)	0	0.1
CCCC1=NN(C(=O)C(C)(C)C)C(=O)C1Cc1c(F)cccc1Cl (stereo not drawn)	.	-0.3
CN1C(N)=NC(=O)/C1=C/c1coc2ccccc2c1=O	9	8.0
COC(=O)c1c2n(c3ccccc3c1=O)CCCS2	38	.
CC12CN(Cc3ccccc3)CC(C)(CN(Cc3ccccc3)C1)C2=O	8	0.9
O=C(C1CCN(Cc2ccccc2)CC1)N1CCN(c2ccccc2F)CC1	21	0.8
Cc1ccnc(SCC(=O)/C=C2\N(C)c3ccccc3C2(C)C)n1	-16	.
CCCCN1C(=O)CC(C(=O)O)C1c1ccc(OC)cc1 (stereo not drawn)	-13	.
N#Cc1ccc(NC(=O)C2CCN(c3nccc(C(F)(F)F)n3)CC2)cc1	.	0.3

(continued)
canonical_smiles	S aureus helic	MgrA-DNA mod
Cn1cc(CCC(=O)NC2CCCCC2)c2ccccc21	8	3.8
Cc1cc(/C=C(\C#N)C(=O)C(C)(C)C)c(C)n1-c1ccc(I)cc1	2	.
CC(=O)Nc1ccc(Br)cc1C(=O)Nc1cc(C(F)(F)F)cc(C(F)(F)F)c1	.	-1.1
CC1=CCC2C(C)(CC[C@H](O)C2(C)C)C1COc1ccc2ccc(=O)oc2c1 (stereo partly drawn)	11	-3.8
NC1=NC(=O)/C(=C\c2cc3ccccc3nc2N2CCCCC2)S1	-11	0.2
C[N+]1(CC(=O)OC2CCCCCCCCCCC2)CCCC1	13	-0.4
CCOC(=O)c1c(C)n(C)c2c1cc(OC(=O)COc1ccccc1)c1ccccc12	.	-1.8
O=C(OCc1nc2ccccc2s1)c1ccc(Cl)s1	22	.
CSc1ccc(S(=O)(=O)Nc2ccc(S(=O)(=O)N3CCCCCC3)cc2)cc1	13	0.6
COc1ccc2[nH]c3c(=O)n(CCCC(=O)N4CCCC4)c(=S)[nH]c3c2c1	18	0.4

Additional compounds follow:
canonical_smiles	S aureus helic	MgrA-DNA mod
CCCn1c(=O)c2sccc2n2c(CCCC(=O)N(C)Cc3ccco3)nnc12	-8	.
Cn1c(=O)c2c(SCC(=O)N3CCCC3)nc(C3CC3)nc2n(C)c1=O	6	.
CC(C)CC(C1=C(O)CCCC1=O)C1=C(O)CCCC1=O	16	.
O=C(NCc1ccccc1)c1csc2c1CCCC2	14	-0.8
O=C(NC1CC1)C(Cc1ccccc1)NS(=O)(=O)c1ccccc1F (stereo not drawn)	5	.
CC(C)(C)c1ccc(CSCC(=O)Nc2ccccc2C#N)cc1	.	0.5
Nc1ccc(-c2nc(-c3ccccc3)nc3ccccc23)cc1	4	.
COc1ccc(/C=N/c2nc3c(ccc4ccccc43)s2)cc1	11	-8.1
CCOC(=O)c1cn(-c2ccc(N3CCC(C)CC3)nn2)nc1N	27	.
N#CCS(=O)(=O)c1ccc(Cl)cc1Cl	.	1.9

(listing goes on)
canonical_smiles	S aureus helic	MgrA-DNA mod
N#CCSc1nc2ccccc2c(=O)n1Nc1ccccc1	6	.
CCCNC(=O)c1nc(-c2ccc(Cl)cc2)n2c1CCCCC2	7	4.7
FC(F)(F)c1ccnc(-n2ccc(-c3cccs3)n2)n1	.	2.9
CN1CC(C(=O)Nc2ccc(I)cc2)CC1=O (stereo not drawn)	6	1.5
CC(C)=CCC/C(C)=C/CC/C(C)=C/CSCC(=O)O	.	5.1
C/C(=N\O)C(=O)c1ccc(Cl)cc1	19	.
Cn1nc(-c2ccccc2)cc1NC(=O)c1ccccc1C(=O)O	.	-2.0
O=C1c2ccccc2S(=O)(=O)N1CCS(=O)(=O)c1ccc(Cl)cc1Cl	.	-1.5
C1=C(c2c[nH]c3ccccc23)CC(c2ccccc2)=NN=C1c1ccccc1	9	0.5
CC(=O)N1CCCC(C(=O)O)C1 (stereo not drawn)	2	.

Part of the list above, set out differently:
Values run as follows: S aureus helic | MgrA-DNA mod
> N#CCSc1nc2ccccc2c(=O)n1Nc1ccccc1
    6 | .
> O=C1c2ccccc2S(=O)(=O)N1CCS(=O)(=O)c1ccc(Cl)cc1Cl
    . | -1.5
> CN1CC(C(=O)Nc2ccc(I)cc2)CC1=O (stereo not drawn)
    6 | 1.5
> C1=C(c2c[nH]c3ccccc23)CC(c2ccccc2)=NN=C1c1ccccc1
    9 | 0.5
> C/C(=N\O)C(=O)c1ccc(Cl)cc1
    19 | .

Other entries:
canonical_smiles	S aureus helic	MgrA-DNA mod
O=C(OCc1c(Cl)cccc1Cl)c1ccccn1	-10	-5.7
COc1cc(/C=N/NC(=S)NC2CC3CCC2C3)ccc1O (stereo not drawn)	.	-3.0
O=C(COC(=O)c1cccc(S(=O)(=O)N2CCCCC2)c1)Nc1ccccc1	10	.
COc1ccc(Nc2nc(N)nc(CN3CCC(C)CC3)n2)cc1	21	.
Cn1c[n+](/N=C(/[O-])c2ccc(C(=O)ON3C(=O)CCC3=O)cc2)cn1	17	4.9
CC(NC(=O)Cc1cccs1)C(c1cccs1)N1CCN(c2ccccc2)CC1 (stereo not drawn)	-20	.
O=C(NC1CC1)c1cc(=O)c2ccccc2o1	4	-1.4
CCc1cc2c(=O)c(-c3csc(C)n3)coc2cc1OC(C)C(=O)O (stereo not drawn)	0	-3.3
Cn1c(=N)n(CC(N)=O)c2ccccc21	11	.
O=S(=O)(c1cccs1)n1cccn1	7	.

The list goes on.
canonical_smiles	S aureus helic	MgrA-DNA mod
Cc1ccc2c(c1)N(C(C)C(=O)O)C(=O)CO2 (stereo not drawn)	2	-2.5
CC(C)NC(=O)c1nc(-c2cccc(F)c2)n2c1CCCCC2	5	-0.2
O=c1cc(-c2ccccc2)nc(Nc2nc3ccccc3o2)[nH]1	16	5.5
C=CCC(O)(CN)CC=C	10	4.0
Cc1ccc(-c2nc3ccccc3s2)cc1NC(=O)c1ccccc1	-10	8.6
CCN1C(=O)c2cccc3c(NC(=O)c4cc(-c5cccs5)nc5ccccc45)ccc1c23	.	-1.7
O=C(Nc1ccc([N+](=O)[O-])cc1)c1ccccc1O	.	-0.4
Cc1ccnc(SCC(=O)N2N=CCC2c2ccccc2)n1 (stereo not drawn)	8	-3.9
O=C1CC(c2ccccc2)CN1Cc1ccccc1 (stereo not drawn)	12	1.0
Cc1ccc(N2CCN(C(=O)C(C)N3C(=O)c4ccccc4C3=O)CC2)cc1 (stereo not drawn)	6	.

(more compounds)
canonical_smiles	S aureus helic	MgrA-DNA mod
O=C(OC(Cc1ccccc1)C(F)(F)F)c1ccc(Cl)cc1Cl (stereo not drawn)	.	-0.1
CCn1c(=O)[nH]c2cc(C(=O)O)ccc2c1=O	-2	.
COc1cccc(-c2nnn(-c3nc(CN4CCCCC4)nc4sc5c(c34)CCCC5)n2)c1	5	.
Cc1ccc(-n2c(SCc3nc(N)nc(N)n3)nnc2-c2ccccc2)cc1C	-10	.
COC(=O)c1ccc(COC(=O)CN2C(=O)C3CC=CCC3C2=O)cc1 (stereo not drawn)	-21	.
CCOC(=O)c1sc(SC)c2c1CC(c1ccc(OC)cc1)CC2=O (stereo not drawn)	.	3.0
O=C(/C=C/c1ccc(OC(F)F)cc1)OC1CCCC1=O (stereo not drawn)	-3	.
O=C(N1CCOCC1)N1CCN(S(=O)(=O)c2ccccc2)C1	5	-0.5
COc1ccc(/C=c2\s/c(=C\C#N)n(C)c2=O)cc1	-36	.
COc1cc(/C=C2\SC(=Nc3ccc4c(c3)OCO4)N(c3ccc4c(c3)OCO4)C2=O)ccc1O	.	0.9

More records:
canonical_smiles	S aureus helic	MgrA-DNA mod
O=c1c2sc3ccccc3c2n(CCN2CCOCC2)c(=O)n1Cc1ccccn1	7	.
CCC1(C)N(O)C(C)C(c2ccccc2)=[N+]1[O-] (stereo not drawn)	-29	.
O=C1c2ccccc2C(O)N1c1cccnc1 (stereo not drawn)	8	-1.0
CCNc1nc(NCC)n2c(SC(C)C(=O)c3ccc(C)cc3)nnc2n1 (stereo not drawn)	21	.
COC(=O)CCC(=O)Nc1ccc(S(=O)(=O)Nc2cc(C)cc(C)c2)cc1	23	-2.4
Cc1cc(C)c2[nH]c(=O)c(CN(CC3CCCO3)C(=O)NC3CCCCC3)cc2c1 (stereo not drawn)	1	0.8
COc1ccc(/C=C/C(=O)O)cc1S(=O)(=O)N1CCCC1	-1	-0.1
C=C1SC(Nc2cc(OC)cc(OC)c2)=NC1(C)C	.	2.6
CCOC(=O)c1[nH]c(COC(C)=O)cc1C	13	0.6
CN(c1ccccc1)S(=O)(=O)c1ccc2[nH]c(=O)oc2c1	6	5.2

Continued:
canonical_smiles	S aureus helic	MgrA-DNA mod
O=C(Cn1ncc2c(=O)oc3ccccc3c21)N1CCN(C2CCCCC2)CC1	14	-0.2
O=C1OC(Nc2ccccn2)c2ccccc21 (stereo not drawn)	5	2.4
Cc1cc(=O)n2nc(N3CCCC3C(=O)Nc3cccc(F)c3)sc2n1 (stereo not drawn)	-7	-2.1
Clc1cccc(NCc2cn3ccccc3n2)c1	1	.
CCOc1ncccc1C(=O)Nc1cccc(C(F)(F)F)c1	.	-0.3
CCOc1ccccc1NC(=O)CSc1nnc(C(CO)NC(=O)c2ccc(OC)cc2)n1C (stereo not drawn)	15	-0.5
CCNc1c2c(nc3ccccc13)CC(C)(C)CC2=O	-14	-2.1
Cc1cccc(NC(=O)CSc2ccc3ccccc3c2)n1	1	-1.4
Cc1nnc(C)n1/N=C\c1cccc(O)c1	-20	0.0
CC1CCc2sc(C(=O)OC3CCCCC3=O)cc2C1 (stereo not drawn)	-6	.

Continuation:
canonical_smiles	S aureus helic	MgrA-DNA mod
Clc1ccc(SC2CN(C(c3ccccc3)c3ccccc3)C2)cc1	.	-1.5
COc1cccc(OC)c1C(=O)Nc1ccccc1NC(=O)c1c(OC)cccc1OC	.	1.1
CCOC(=O)c1cccc(-c2ccc(/C=C3\C(=N)N4N=C(N5CCCC5)SC4=NC3=O)o2)c1	-8	.
Cc1cc(=O)[nH]c2nnc(SCC(=O)NC(C)C)n12	6	.
Cc1noc(C)c1C(=O)NCCC12CC3CC(CC(C3)C1)C2	5	.
N#Cc1ccccc1NC(=O)COC(=O)c1ccccc1I	-7	.
CC(=O)N(CCc1ccccc1)C1CC(=O)N(c2ccccc2)C1=O (stereo not drawn)	7	4.0
CC(Sc1ccccc1)C(=O)Nc1ccc(N2CCOCC2)cc1 (stereo not drawn)	-2	.
C=C(C)c1cccc(C(C)(C)NC(=O)N2c3ccc(F)cc3CCC2C)c1 (stereo not drawn)	-3	0.4
COc1ccc(N=C2SC(C(=O)Nc3ccccc3OC)CC(=O)N2CCc2ccc(OC)c(OC)c2)cc1 (stereo not drawn)	.	1.0

Next section.
canonical_smiles	S aureus helic	MgrA-DNA mod
CCN1C(=O)C(O)(c2c[nH]c3ccccc23)c2ccccc21 (stereo not drawn)	-34	.
Nn1c(SCc2cc(=O)n3ccsc3n2)nnc1-c1ccc(Cl)cc1Cl	-15	.
O=C(COC(=O)CCc1nnc(-c2ccccc2)o1)Nc1ccc(F)cc1	-9	.
CC(C)(C)OC(=O)N1CCN(C2CC(=O)N(c3ccccc3)C2=O)CC1 (stereo not drawn)	12	1.4
COC(=O)c1cnn(C(=O)Nc2c(C)cccc2C)c1C(OC)OC	-14	.
O=C1c2ccccc2C(=O)N1c1ccc(Cl)cc1	5	-1.5
O=S(=O)(NC1CCCC1)c1cccc(S(=O)(=O)N2CCCCC2)c1	20	0.7
O=C(CC(SCc1ccc(Cl)cc1)C(=O)O)c1ccc(Cl)cc1 (stereo not drawn)	-2	-2.5
Brc1ccc2ncnc(Nc3ccc(N4CCCC4)cc3)c2c1	-1	-0.3
CN(C)c1ccc2cc(C(=O)O)[nH]c2c1	2	-2.6
